Assay outcomes from PubChem BioAssay.
ClpP mod: qHTS Assay for Activators of ClpP. purified B. subtilis ClpP, FRET peptide cleavage, 20 min. Potency, µM (doses to about 57.5 µM), for inactives: at the top dose activity change, negative = active. actives 1.9% (n = 340,000). ATP-dependent Clp protease proteolytic subunit (Bacillus subtilis (strain 168)), P80244; active = well fitted falling curve with a large enough effect; inconclusive = small, poorly fitted or top-dose-only effect; inactive = no such curve, though single readings can be large or run the other way; further: potency means the concentration at half of the fitted maximal effect; the source files actives as falling curves though it sought activators and does not explain the sign; nearly all actives have a fitted effect of over 65% in size; many hits overshoot -100%
Target sequence (P80244 whole entry, looked up): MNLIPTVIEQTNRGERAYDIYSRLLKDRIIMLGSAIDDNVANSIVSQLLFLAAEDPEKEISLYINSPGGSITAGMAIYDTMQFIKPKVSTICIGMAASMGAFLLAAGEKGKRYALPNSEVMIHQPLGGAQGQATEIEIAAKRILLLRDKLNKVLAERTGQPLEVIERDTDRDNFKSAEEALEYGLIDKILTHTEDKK
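ClpP 10 microg/mL final, pH 8 Tris/KCl buffer with BSA, glycerol, Tween-20; compound pinned in; FRET-FV substrate; RT 20 min; Ex320/Em430; ΔFRET vs ADEP 5.8 microM, DMSO, no enzyme.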
gsp agonist: gsp mutant agonism; AID 624287; gsp mutant cells, cAMP HTRF, 30 min; control for the full effect not named in the record; Potency, µM (titrated, usually from 76.9 µM), without a hit: top-dose activation (cAMP increase), actives largely listed as activators; actives 0.13% (n = 340,000); active = well fitted activation curve with a large enough effect; inconclusive = small, poorly fitted or top-dose-only effect, or another doubt; inactive = no such curve, though single readings can be large or run the other way; cell line not stated here;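 further: phosphodiesterase inhibitor Ro 20-1724 added with compounds to block cAMP breakdown; potency means the concentration at half of the fitted maximal effect; nearly all actives have a fitted effect of over 60% in size; about a fifth of the inactives were tested at one dose only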
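Cells stably selected in G418 were plated at 2000/well, grown 16-24 hr, then given compounds in DMSO with the PDE inhibitor […] (300 uM solution added) for 30 min at 37C; cAMP was read by HTRF.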
gsp antagonist: antagonists of gsp mutant (McCune-Albright syndrome); gsp-mutant cells, cAMP HTRF, 30 min; control for the full effect not named in the record; Potency, µM (titrated, usually from 76.9 µM), inactives show at the highest dose activity change, negative = inhibition, most hits filed as inhibitors; actives 0.4% (n = 340,000); active = falling curve of any shape with a large fitted effect; inconclusive = falling curve, mostly with a smaller effect; inactive = flat or rising curve; cell line not stated here;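 further: intracellular cAMP measured with PDE inhibitor Ro 20-1724 present during compound exposure; potency means the concentration at half of the fitted maximal effect; on the % scale 0 is the no-effect control and ±100 the full control effect; nearly all actives have a fitted effect of over 65% in size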
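HTRF cAMP measurement after 30 min RT detection following 30 min, 37C compound treatment alongside […] (added as 300 uM solution) in G418-selected cells seeded at 2000/well and grown 16–24 h.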
TRPML1 inh: blocks the human TRPML1 channel | actives 0.02% (n = 390,000) | TRPML1-inducible cells, Ca2+ dye fluorescence, FDSS; active compounds read low; inhibition of EC80 agonist-evoked calcium signal | activity change, negative = inhibition, % (no concentration beside the values) | Q9GZU1; in the data active means activity change below about -50%; inconclusive means about -30% to -50%; inactive means above about -30%;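 further: stimulus is agonist 54-4 at its EC80 concentration; on the % scale 0 is the no-effect control and ±100 the full control effect; compound concentration not given in the record; the text of the record puts the active cut at -80%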
Target sequence (Q9GZU1 whole entry, looked up): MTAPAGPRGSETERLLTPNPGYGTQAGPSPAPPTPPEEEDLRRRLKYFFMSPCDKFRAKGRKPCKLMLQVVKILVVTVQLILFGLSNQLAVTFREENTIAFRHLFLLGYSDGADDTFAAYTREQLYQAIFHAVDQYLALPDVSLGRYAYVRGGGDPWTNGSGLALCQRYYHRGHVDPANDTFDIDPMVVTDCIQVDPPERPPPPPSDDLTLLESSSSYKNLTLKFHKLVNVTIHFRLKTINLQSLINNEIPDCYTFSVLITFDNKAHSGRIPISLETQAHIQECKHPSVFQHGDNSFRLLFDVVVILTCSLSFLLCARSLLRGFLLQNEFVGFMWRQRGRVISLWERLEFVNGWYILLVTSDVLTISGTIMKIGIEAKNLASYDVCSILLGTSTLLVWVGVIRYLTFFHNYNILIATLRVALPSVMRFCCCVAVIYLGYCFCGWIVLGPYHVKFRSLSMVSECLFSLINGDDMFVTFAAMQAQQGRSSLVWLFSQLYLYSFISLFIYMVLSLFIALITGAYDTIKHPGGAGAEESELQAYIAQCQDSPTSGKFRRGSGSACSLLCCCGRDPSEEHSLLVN
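TRPML1-DL cells, Tet-induced overnight (~16 h, 37 °C) at 1,500 cells/well, were loaded with Ca8 no-wash dye plus quencher for 45-90 min at room temperature. Compounds were pinned during FDSS kinetic reading; agonist 54-4 at EC80 (4 uM final) then added.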
TRPV1 PAM: human TRPV1 potentiation. TRPV1-expressing cells, Fluo-8 calcium influx, capsaicin EC20 potentiation; host cell line not named in the record; control for the full effect not named in the record. potentiation, % at 8.33 µM. actives 0.02% (n = 320,000). AID 540277; active means potentiation above 80%; inconclusive means 30% to 80%; inactive means below 30%; further: 0% is about no effect
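TRPV1-expressing cells were cultured overnight at 35.5C and loaded with Fluo-8 calcium dye for 40 to 90 min at room temperature. After a 10 s baseline, compound was added and calcium influx was read kinetically for 3 min (ex 480/em 520 nm).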
Menin MLL FP FL: displaces fluorescein MLL peptide from human menin; Fluorescence polarization, fluorescein-MLL peptide displacement from menin; FP activity change, % at 61.4 µM; 290,000 tested, under 10 active; AID 1766; inconclusive = falling polarisation curve, or a change in total fluorescence; inactive = total fluorescence flat and polarisation flat or rising; no compound was filed as active; the % refers to the polarisation; negative = inhibition;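 further: % of control where 0% means no effect; inhibitors lower the polarisation; unlabelled MLL peptide was the positive control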
Sfp inh: blocks B. subtilis Sfp PPTase activity; Q9F4F7; Biochemical Sfp PPTase activity, qHTS; Potency, µM, for inactives: max response, negative = inhibition, most hits filed as inhibitors; actives 3.5% (n = 310,000); AID 1490; active means well fitted inhibition curve with a large enough effect; inconclusive means small, poorly fitted or top-dose-only effect, or another doubt; inactive means no such curve, though single readings can be large or run the other way;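 further: the enzyme is Sfp with the accession as filed and its product quenches rhodamine fluorescence; potency means the concentration at half of the fitted maximal effect; 0% = enzyme reaction without inhibitor and -100% = no enzyme wells; top concentration of the series not given in the record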
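Compounds were incubated with enzyme (final 15 nM) for 15 min at room temperature before substrate addition started the reaction. Fluorescence at 525 nm excitation, 598 nm emission was recorded immediately and after 30 minutes.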
Numbers without * were called inactive; ? = inconclusive; / = no result given; [ ] = remark or other dose.

[1] CCCCC1(CC)COC(c2ccccc2)OC1 (stereo not given)
[2] COc1ccc(F)cc1S(=O)(=O)Nc1cc2c3c(c1)CCC(=O)N3CCC2
[3] Cc1ccc(C2=NCCn3c2c2ccc([N+](=O)[O-])cc2[n+]3[O-])cc1
[4] Cc1c(NC(=O)c2cc3c(s2)-c2ccccc2OC3)cccc1[N+](=O)[O-]
[5] Cc1cccc(Cn2c(=O)oc3ccc(C)cc32)c1
[6] Cc1nc(SCC(=O)Nc2ccc(S(=O)(=O)N3CCOCC3)cc2)c2c(C)c(C)sc2n1
[7] O=C(Nc1cccc2ccccc12)N1CCCN(c2c(Cl)cncc2Cl)CC1
[8] COc1c(Br)cc([N+](=O)[O-])c(OC)c1C(=O)NC(=O)Nc1cc(Cl)cc(Cl)c1
compound no.	1	2	3	4	5	6	7	8
Menin MLL FP FL	/	/	/	3.8	0.6	/	-3.4	-0.1
Sfp inh	/	/	/	-5.8%	-2.2%	/	9.6%	-5.3%
gsp antagonist	5.2%	-0.9%	?	2.9%	0.0%	-0.3%	?	-4.8%
gsp agonist	-7.7%	15.3%[15.4 µM]	16.7%	-6.3%[15.4 µM]	-3.1%[15.4 µM]	-1.0%	?	9.7%
TRPML1 inh	-0.3	-0.1	4.8	17.0	5.3	-11.8	-2.8	-4.1
TRPV1 PAM	/	-3.3	14.2	-27.8	21.0	/	-9.2	8.5
ClpP mod	/	-0.6%	-3.2%	-0.5%	-1.7%	0.6%	/	-2.9%

[9] COC(=O)c1c(C)noc1-c1snnc1C
[10] COc1cc(CN2CCNC(=O)C2CC(=O)N2CCCN(C(C)=O)CC2)cc(OC)c1 (stereo not given)
[11] Cc1cc(C)nc(N2CCC(C(=O)NNC(=O)c3ccc(Cl)cc3)CC2)n1
[12] Cc1ccc2nc3cc([N+](=O)[O-])cc([N+](=O)[O-])c3cc2c1
[13] CCCNC(=O)Cn1c(=O)n(C)c2ccccc21
[14] CCOc1ccc(NC(=O)c2nsc(Cl)c2Cl)cc1
[15] COc1ccccc1CNC(=O)COC(=O)c1cc(S(=O)(=O)N2CCOCC2)ccc1Cl
[16] O=C(COC(=O)c1ccc(Br)o1)NC1CCCc2ccccc21 (stereo not given)
compound no.	9	10	11	12	13	14	15	16
Menin MLL FP FL	3.7	/	1.8	-4.5	2.4	-1.5	/	/
Sfp inh	0.8%	1.4%	-2.5%	9.7%	3.8%	19.6%	/	/
gsp antagonist	1.9%	-1.0%	2.1%	-2.0%	-3.3%	-0.3%	-12.3%	13.1%
gsp agonist	?	-5.3%	-92.6%[inhibitor]	5.7%	13.5%	14.0%	-38.5%[inhibitor]	26.8%
TRPML1 inh	3.8	-2.0	13.8	8.8	-9.2	-1.7	25.5	10.8
TRPV1 PAM	21.0	-1.8	2.8	-9.0	8.1	-16.9	-10.0	3.1
ClpP mod	-0.6%	15.8µM*	-15.0%	1.5%	0.0%	-0.6%	-22.7%	-0.6%

[17] CC(=O)Nc1ccc(S(=O)(=O)N2CCC(NC(=O)C(Cc3cccc(F)c3)NC(C)=O)CC2)cc1 (stereo not given)
[18] CCOC(=O)C1(Cc2ccccc2)CCN(Cc2cn(CC(=O)OC)c3ccccc23)CC1
[19] COc1ccccc1C(C)NC(=O)CCC(=O)N1CCN(S(=O)(=O)c2ccc(Cl)cc2)CC1 (stereo not given)
[20] CC1CC(C)CN(c2cc3c(cc2[N+](=O)[O-])C(=O)N(c2ccccc2)C3=O)C1 (stereo not given)
[21] CCOc1ccc(N(CC(=O)NC2CCCCC2)C(=O)Cn2nnc(-c3ccc(C)o3)n2)cc1
[22] COc1cccc(CC(=O)Nc2sc3c(c2C(N)=O)CCCC3)c1
[23] CCC1CCCCN1C(=S)NC(=O)c1cc(S(=O)(=O)N2CCOCC2)ccc1C (stereo not given)
[24] O=[N+]([O-])c1ccc(Oc2ccc(/C=N/O)cc2)nc1
compound no.	17	18	19	20	21	22	23	24
Menin MLL FP FL	/	2.6	/	3.6	-2.2	0.6	5.9	4.0
Sfp inh	-1.0%	15.9%	/	6.2%	-2.2%	3.2%	0.6%	-10.1%
gsp antagonist	4.6%	8.9%	?	3.2%	5.1%	-3.1%	-1.0%	9.6%
gsp agonist	10.2%	-5.8%[15.4 µM]	-17.8%	?	-0.7%[15.4 µM]	35.5µM*	19.5%	-10.7%
TRPML1 inh	11.3	-8.1	-5.4	2.9	6.9	16.4	-1.8	-0.5
TRPV1 PAM	1.0	2.0	/	4.4	-1.7	24.8	-0.1	1.9
ClpP mod	/	/	?	1.6%	/	/	-0.6%	/

[25] c1ccc2nc(N3CCOCC3)c(N3CCCC3)nc2c1
[26] O=C(CCCN1C(=O)NC2(CCCC2)C1=O)Nc1ccc(F)cc1
[27] O=S(=O)(c1cccc(C(F)(F)F)c1)N1CCN(C(=S)NC2CC2)CC1
[28] O=C(NC(=S)N1CCCC(C(F)(F)F)C1)c1ccc(F)cc1 (stereo not given)
[29] CCOC(=O)C1CCN(C(=O)c2cccc(S(=O)(=O)N3CCc4ccccc43)c2)CC1
[30] Cc1c(CNCCc2ccc(Cl)cc2)c(C(=O)O)c(C)n1-c1ccccc1
[31] Cn1nc(N2CCN(S(=O)(=O)c3ccccc3)CC2)c(=O)n(C)c1=O
[32] COc1ccc(C2NC(=O)c3ccccc3O2)cc1 (stereo not given)
compound no.	25	26	27	28	29	30	31	32
Menin MLL FP FL	/	/	6.6	-4.1	/	4.4	/	4.0
Sfp inh	/	/	15.0%	7.3%	/	4.3%	/	-6.3%
gsp antagonist	0.3%	7.5%	-4.7%	-1.8%	-7.7%	1.6%	-1.7%	6.8%
gsp agonist	-8.3%[15.4 µM]	2.8%[15.4 µM]	4.3%	13.8%	-14.7%	3.5%[15.4 µM]	1.8%	14.3%
TRPML1 inh	6.3	2.9	26.1	28.9	0.7	19.8	0.0	/
TRPV1 PAM	/	4.1	-16.4	17.7	2.7	10.2	1.8	8.7
ClpP mod	0.9%	0.6%	-6.9%	/	1.8%	-0.5%	-20.8%	4.0%

[33] CC(=O)Nc1cc(NC(C)=O)ncn1
[34] CCc1ccc(C(=O)NNC(=O)c2ccc3c(=O)n4c(nc3c2)CCC4)cc1
[35] CCCOc1ccc(C2C(C(=O)c3ccc(C)o3)=C(O)C(=O)N2CCN2CCOCC2)cc1OC (stereo not given)
[36] COc1ccc(C/C(N)=N/OC(=O)c2ccc(Cl)cc2)cc1
[37] CC1(C)CC(=O)c2cc3c(nc2C1)CC(C)(C)CC3=O
[38] COc1ccc(CCNC(=O)C2CC3Cn4c(nc5ccccc54)C3N2C)cc1 (stereo not given)
[39] O=C(OCCN1CCOCC1)C(c1ccccc1)c1ccccc1
[40] COc1ccc(N(CC(=O)NC2CC3CCC2C3)S(=O)(=O)c2ccc(C)cc2)cc1Cl (stereo not given)
compound no.	33	34	35	36	37	38	39	40
Menin MLL FP FL	2.8	/	2.4	-1.4	0.6	7.9	0.1	/
Sfp inh	2.1%	25.7%	-22.2%	9.2%	15.3%	20.9%	-17.8%	/
gsp antagonist	-4.8%	7.9%	-7.8%	-0.7%	-6.4%	-2.5%	-9.0%	/
gsp agonist	-8.6%[15.4 µM]	0.9%[15.4 µM]	?	4.6%	?	/	-4.5%	-15.1%
TRPML1 inh	-7.1	4.9	-8.1	8.1	23.1	-3.6	12.6	-3.8
TRPV1 PAM	14.6	-9.1	0.8	-18.5	7.6	-1.5	1.8	/
ClpP mod	/	-1.2%	-0.5%	/	0.6%	-2.2%	-3.1%	0.7%

[41] Cc1sc2nc(CN3CCOCC3)nc(Cl)c2c1C
[42] Cc1cccc(CSc2nc3[nH]ncc3c(=O)[nH]2)c1
[43] O=C(N/N=C\c1ccc[nH]1)C1COc2ccccc2O1 (stereo not given)
[44] CN(C(=O)c1ccco1)c1nc(-c2ccc(F)cc2)cs1
[45] COc1ccc(NC(=O)/C(C#N)=C/c2ccc(OCc3ccccc3F)cc2)cc1
[46] O=C(N/N=C/c1coc2ccccc2c1=O)c1cc(Br)c(O)c(Br)c1
[47] Cc1cc(N2CCOCC2)cc(C)[n+]1[O-]
[48] CC(=O)c1ccc(NS(=O)(=O)c2c(C)cc(C)cc2C)cc1
compound no.	41	42	43	44	45	46	47	48
Menin MLL FP FL	4.5	3.0	2.0	0.2	9.6	3.7	-0.5	0.1
Sfp inh	-1.0%	11.9%	-8.8%	3.6%	2.6%	5.5%	-2.0%	19.2%
gsp antagonist	-39.5%	8.5%	24.4%	-15.4%	3.3%	-8.0%	3.1%	4.0%
gsp agonist	-15.1%	0.0%	23.2%	-0.7%[15.4 µM]	13.3%[15.4 µM]	20.3%[15.4 µM]	-4.5%	-52.2%[15.4 µM]
TRPML1 inh	-19.7	34.2	1.9	-13.6	-1.8	-4.0	12.4	-6.6
TRPV1 PAM	-1.3	-13.6	-11.0	-28.6	-11.4	6.3	1.7	5.0
ClpP mod	-0.2%	/	3.2%	0.5%	1.6%	32.1%	-10.1%	/

6 entries already listed, ordered by molar mass, low to high.
[43] O=C(N/N=C\c1ccc[nH]1)C1COc2ccccc2O1 (stereo not given)
[42] Cc1cccc(CSc2nc3[nH]ncc3c(=O)[nH]2)c1
[41] Cc1sc2nc(CN3CCOCC3)nc(Cl)c2c1C
[44] CN(C(=O)c1ccco1)c1nc(-c2ccc(F)cc2)cs1
[48] CC(=O)c1ccc(NS(=O)(=O)c2c(C)cc(C)cc2C)cc1
[45] COc1ccc(NC(=O)/C(C#N)=C/c2ccc(OCc3ccccc3F)cc2)cc1
compound no.	43	42	41	44	48	45
Menin MLL FP FL	2.0	3.0	4.5	0.2	0.1	9.6
Sfp inh	-8.8%	11.9%	-1.0%	3.6%	19.2%	2.6%
gsp antagonist	24.4%	8.5%	-39.5%	-15.4%	4.0%	3.3%
gsp agonist	23.2%	0.0%	-15.1%	-0.7%[15.4 µM]	-52.2%[15.4 µM]	13.3%[15.4 µM]
TRPML1 inh	1.9	34.2	-19.7	-13.6	-6.6	-1.8
TRPV1 PAM	-11.0	-13.6	-1.3	-28.6	5.0	-11.4
ClpP mod	3.2%	/	-0.2%	0.5%	/	1.6%
